MT1-MMP act inh: blockers of MT1-MMP proenzyme processing, primary screen, HT1080 RFP-PRO-GFP cells, GFP/RFP fluorescence | Matrix metalloproteinase-14 (Homo sapiens), P50281 | GFP/RFP ratio fluorescence, overnight; percent of plate control window, DMSO zero | GFP/RFP ratio change, % at 20 µM | hit rate 0.061% among 360,000 | AID 651647, 2012;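 active = GFP/RFP ratio change of at least 30% with cell ATP level not reduced by more than half and red fluorescence within 50% of control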; note: strong numbers were not always called active
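Assay system: RFP-PRO-GFP reporter HT1080 cells; read-out basis: GFP/RFP fluorescence ratio; benchmarks: DMSO wells and RFP-L50D-GFP cells; doses: 20 µM single dose, 1% DMSO; schedule: overnight cell settling, then overnight compound exposure, 37 °C, 5% CO2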
Rce1 inh: yeast Rce1p protease inhibitors, primary screen, biochemical, fluorescence, cell-free homogeneous; CAAX prenyl protease 2 (Saccharomyces cerevisiae (strain ATCC 204508 / S288c)), Q03530; yeast membranes, quenched prenylated peptide cleavage fluorescence; calls only; hit rate 0.27% among 290,000; AID 2563, 2010;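 active = fall in fluorescence gain of 50% or more versus controls, with final raw signal at or below 3038400; inconclusive = same 50% fall but final raw signal above 3038400; inactive = fall in fluorescence gain under 50%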;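 note: plate controls were neutral control wells for no effect and wells lacking membranes for full effect; tested at 10 µM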
Target sequence (Q03530 whole entry, looked up): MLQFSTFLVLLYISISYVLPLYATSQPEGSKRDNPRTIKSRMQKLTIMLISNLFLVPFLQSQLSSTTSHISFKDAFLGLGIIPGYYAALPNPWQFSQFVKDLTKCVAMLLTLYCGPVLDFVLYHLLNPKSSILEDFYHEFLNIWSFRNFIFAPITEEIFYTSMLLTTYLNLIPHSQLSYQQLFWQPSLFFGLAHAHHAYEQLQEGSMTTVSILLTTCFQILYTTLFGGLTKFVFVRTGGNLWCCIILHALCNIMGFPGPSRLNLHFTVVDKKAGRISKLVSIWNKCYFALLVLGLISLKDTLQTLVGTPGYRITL
eIF4H FP inh: human eIF4H binding inhibitors, primary screen, translation initiation inhibitor project, biochemical, uHTS, fluorescence polarization. inhibition, % at 35 µM. Eukaryotic translation initiation factor 4H (Homo sapiens), Q15056. eIF4H fluorescence polarization binding assay. hit rate 0.94% among 290,000;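 active = 50% or more with normal probe brightness, or confirmed in later tests; inconclusive = above 50% with abnormal brightness, or retests that disagree; inactive = below 50% or failed in later tests; about a fifth of its hits are not listed in these tables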;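 note: calls also rest on retests at 20 µM and on dose response follow-up; 0% = protein and probe with vehicle and 100% = probe without protein; strong numbers were not always called active; many hits fall short of the cut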
Yeast UUG start: modulators of yeast start codon fidelity, primary screen, whole organism, S. cerevisiae, single point, plate reader. AID 602363, 2012. activity score, % at 18.7 µM. S. cerevisiae UUG-firefly luciferase reporter, luminescence/redox ratio. hit rate 0.13% among 350,000;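 active = replicate mean at a twofold rise or more, about +100% in these data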;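 note: firefly luciferase made from a UUG start codon reports start codon fidelity; reporter light over untreated wells divided by growth signal over untreated wells; some hits fall short of that in this replicate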
Env fusion inh: inhibitors of HIV-1 Env-driven cell-cell fusion, primary screen, HeLa-JRFL effector, CEM21 target cells, luciferase; hit rate 1.1% among 360,000; inhibition, % at 12.3 µM;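 active = mean replicate inhibition score of at least 50 and every replicate individually at or above 50; inconclusive = only one of the two criteria met; inactive = mean below 50 and not all replicates reaching 50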;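 note: 0% = plate neutral controls and 100% = maraviroc near 300 nM; one replicate is shown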
CSC inhib: cancer stem cell viability inhibitors, primary screen, luminescence; cancer stem cell-like cells viability; inhibition, % at 7.5 µM; hit rate 1.1% among 300,000;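 active = mean at 75% or more and at least half the replicates too; inconclusive = mean and replicates disagree; tested in HMLE shEcad cells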;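 note: 0% = median of negative and 100% = median of positive control wells; the first replicate is given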
PABP FP inh: PABP poly(A) RNA binding inhibitors, primary screen, biochemical, fluorescence polarization, uHTS; Polyadenylate-binding protein 1 (Homo sapiens), P11940; inhibition, % at 35 µM; hit rate 1% among 290,000; AID 2014, 2009;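 active = 50% or more with normal probe brightness, or confirmed in later tests; inconclusive = above 50% with abnormal brightness, or retests that disagree; inactive = below 50% or failed in later tests; about a fifth of its hits are not listed in these tables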;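 note: calls also rest on retests at 20 µM and on dose response follow-up; controls were probe without protein and protein plus probe with vehicle; some compounds called inactive have numbers as strong as hits; many hits fall short of the cut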
Target sequence (P11940 whole entry, looked up): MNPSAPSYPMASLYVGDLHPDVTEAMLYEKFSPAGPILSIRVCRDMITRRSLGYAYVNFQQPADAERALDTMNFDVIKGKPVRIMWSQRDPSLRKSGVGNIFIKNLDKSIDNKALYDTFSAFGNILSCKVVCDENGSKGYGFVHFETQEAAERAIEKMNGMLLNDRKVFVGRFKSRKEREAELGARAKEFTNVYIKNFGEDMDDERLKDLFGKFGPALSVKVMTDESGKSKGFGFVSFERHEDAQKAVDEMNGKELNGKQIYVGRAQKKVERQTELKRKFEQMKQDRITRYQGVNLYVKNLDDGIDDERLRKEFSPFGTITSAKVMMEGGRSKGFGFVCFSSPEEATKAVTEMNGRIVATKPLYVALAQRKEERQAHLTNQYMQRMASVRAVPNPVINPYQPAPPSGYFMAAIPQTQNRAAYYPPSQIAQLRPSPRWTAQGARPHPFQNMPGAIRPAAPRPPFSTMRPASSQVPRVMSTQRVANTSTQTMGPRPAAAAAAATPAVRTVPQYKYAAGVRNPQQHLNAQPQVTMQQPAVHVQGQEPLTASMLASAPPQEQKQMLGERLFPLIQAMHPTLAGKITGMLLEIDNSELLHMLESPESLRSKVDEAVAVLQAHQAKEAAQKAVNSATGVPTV
eIF4H FP inh retest: second read-out of eIF4H FP inh, no call of its own (marks repeat the call); inhibition, %; compound at 20 µM; confirmation average;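 mean of two retest wells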
PABP FP inh retest: second read-out of PABP FP inh, no call of its own (marks repeat the call); inhibition, %; compound at 20 µM; confirmation repeats;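 mean of two retest wells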
MT1-MMP act inh RFP: recorded beside MT1-MMP act inh, whose call it bears; RFP signal change, %; measured here: RFP expression control read;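 0 = vehicle wells; hits needed this value within 50% of zero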
* hit, by the source's call; i = inactive; u = inconclusive; x = no result given.

SMILES	MT1-MMP act inh	MT1-MMP act inh RFP	Rce1 inh	eIF4H FP inh	Yeast UUG start	Env fusion inh	CSC inhib	PABP FP inh	others
COc1ccc(S(=O)(=O)N(C)C)cc1NC(=O)CSc1nnc(-c2cccnc2)o1	2	0	i	0	-17	5	-4	10
O=C(COC(=O)c1ccc2ncsc2c1)NC(=O)c1ccccc1	-1	0	i	2	-10	0	-3	6
CC1Cc2nc(SCC(=O)OCc3ccccc3)n(C)c(=O)c2S1 (stereo unspecified)	7	3	i	-2	-9	8	-7	2
CCOC(=O)N1CCN(C(=O)c2ccc3c(=O)n(-c4ccc(OC)cc4)c(=S)[nH]c3c2)CC1	17	-2	i	0	-7	-26	-4	-4
Cc1ccc(N(CC(=O)NCc2ccc(F)cc2)C(=O)CCC(=O)Nc2ccccn2)cc1C	-11	-5	i	-4	-15	22	-10	7
CCCCn1c(CCn2nc(C)c(Br)c2C)n[nH]c1=S	6	8	i	2	x	x	-21	2
O=[N+]([O-])c1ccc(-c2nc(NCc3cccnc3)c3ccccc3n2)cc1	0	-4	i	2	-11	-3	16	-1
Cc1cc(C(=O)N2CCN(CCc3ccccc3)CC2)no1	2	6	i	-10	-23	x	-13	6
CCCOc1ccc(C(=O)NCc2cccnc2)cc1	-3	-3	i	3	-16	x	-7	17
O=C(Nc1ccc2c(c1)OCO2)C1Cc2c(-c3ccc4c(c3)OCO4)ccnc2O1 (stereo unspecified)	-5	-17	x	x	-2	-10	x	x
COC(=O)c1nn(-c2ccc3c(c2)OCO3)cc1O	1	4	i	-6	x	-98	5	-6
CN(Cc1ncc[nH]1)Cc1cn(-c2ccccc2)nc1-c1ccc2c(c1)OCO2	5	4	i	-3	-14	1	-20	-8
Cc1cccnc1C(NC(=O)C1CCN(Cc2ccc(Cl)cc2)CC1)c1ccccc1 (stereo unspecified)	-5	-1	x	x	-13	-6	x	x
O=C(O)c1ccc2[nH]c3c(c2c1)CCCC3	1	6	i	-2	-23	-6	-3	4
Cc1ccc(C(=O)COC(=O)CCC(=O)Nc2cccc(Cl)c2)cc1[N+](=O)[O-]	1	5	i	-12	-19	x	-1	-6
Cc1ccc(O)c(C(=O)c2cc(C#N)c(=O)n(-c3nccs3)c2)c1	-105	-1	i	u	-9	-14	61	u
COc1ccc(CN(C)C(=O)c2cccc(NS(=O)(=O)c3ccccc3)c2)cc1F	-3	-1	i	3	x	-83	10	0
O=C(NCCc1ccccc1)C(c1ccncc1)N(C(=O)c1csnn1)C1CC1 (stereo unspecified)	1	3	i	4	-4	-50	-11	-4
COc1ccccc1CNC(=O)CCCn1nc(C)n2ccnc2c1=O	0	3	i	-3	-13	-22	4	-1
COc1ccccc1C(=O)COC(=O)c1ccccc1OCC(=O)Nc1ccc(SC(F)F)cc1	3	1	i	-8	x	23	5	-8
C/C(Cl)=C/Cn1c(SCCN2CCOCC2)nc2c1c(=O)[nH]c(=O)n2C	7	1	i	-5	4	x	-7	-9
Cn1c2ccc(F)cc2c2ncn(Cc3ccco3)c(=O)c21	-1	2	i	5	-16	-33	-12	3
CSCCC(NC(=O)/C(=C/c1ccco1)NC(=O)c1ccc(Br)o1)C(=O)O (stereo unspecified)	-3	0	i	-7	-5	8	-2	-1
Cc1csc(NC(=O)c2cc(-c3ccco3)nc3ccccc23)n1	-8	1	i	88*	2	-5	-2	1.9*	eIF4H FP inh retest=90*;PABP FP inh retest=101*
O=NN(C(=O)NCc1cccnc1)C1CCCCC1	3	6	x	x	-26	-8	x	x

Brought forward from above: four compounds, then new ones.
SMILES	MT1-MMP act inh	MT1-MMP act inh RFP	Rce1 inh	eIF4H FP inh	Yeast UUG start	Env fusion inh	CSC inhib	PABP FP inh	others
Cn1c2ccc(F)cc2c2ncn(Cc3ccco3)c(=O)c21	-1	2	i	5	-16	-33	-12	3
CSCCC(NC(=O)/C(=C/c1ccco1)NC(=O)c1ccc(Br)o1)C(=O)O (stereo unspecified)	-3	0	i	-7	-5	8	-2	-1
Cc1csc(NC(=O)c2cc(-c3ccco3)nc3ccccc23)n1	-8	1	i	88*	2	-5	-2	1.9*	eIF4H FP inh retest=90*;PABP FP inh retest=101*
O=NN(C(=O)NCc1cccnc1)C1CCCCC1	3	6	x	x	-26	-8	x	x
O=C(c1cccs1)N1N=C(c2ccc(O)cc2)CC1c1ccccc1 (stereo unspecified)	3	-2	i	3	x	-4	1	5
Cc1ccc2cccc(Oc3ncnc4scc(-c5ccccc5)c34)c2n1	-10	-6	i	-6	2	7	u	-2
c1ccc(-c2n[nH]c(-c3ccccc3)c2-c2nc3ccccc3[nH]2)cc1	-6	-6	i	-6	-16	14	13	-3
COC(=O)c1cc(C(=O)N2CCc3ccccc32)cc([N+](=O)[O-])c1	1	3	x	-2	-3	10	10	-3
CCS(=O)(=O)Nc1c(C(=O)OC)[nH]c2ccccc12	-1	2	i	-2	-12	-4	-23	-6
CCOc1ccc(Cn2nnc(C(=O)NCc3ccc(OC)cc3)c2N)cc1	2	-2	i	16	-14	4	-8	-12
Cn1c(-c2ccccc2)cccc1=O	-3	2	i	9	-17	-23	x	12
CCOC(=O)N1CCC(NC(=O)CCS(=O)(=O)c2ccc3c(c2)CCN3C(=O)CC)CC1	2	0	i	-2	-11	-4	-6	-6
O=C(CCC1CCCCC1)Nc1cc(C(F)(F)F)ccc1N1CCOCC1	-1	-2	i	x	x	9	10	x
COC(C/C=C\[C@H](O)[C@H](C)OCc1ccccc1)OC	x	x	i	x	-16	11	-19	x
Cc1ccc(OCCCN2C(=O)C(=O)c3cc(C)ccc32)cc1	4	0	i	-3	-18	9	27	-4
COC(=O)c1cc(=O)n(Cc2ccc3c(c2)OCO3)c(=Nc2ccc(F)cc2)s1	-4	-21	i	-1	-9	-29	43	6
CCN(c1ccccc1)c1cc2ccccc2c(=O)[nH]1	-2	4	i	11	-74	4	20	7
CCC(CO)Oc1cc(NCc2ccccc2C(F)(F)F)c2ncn(C(C)C)c2c1 (stereo unspecified)	-5	-5	x	x	-5	-4	x	x
Cn1c(N)c(N=O)c(=O)n(C)c1=S	-2	1	x	x	-10	4	x	x
O=[N+]([O-])c1cccc(-c2n[nH]c(=S)n2-c2ccc(Br)cc2)c1	1	-5	i	-8	x	12	10	1
O=C(CCCN1C(=O)CSc2ncccc21)N1CCN(c2cccc(C(F)(F)F)c2)CC1	-2	-9	i	-3	-13	x	-11	17
Cc1cc(C)cc(C(=O)Nc2ccc(N3CCN(C(=O)c4ccco4)CC3)cc2)c1	-5	-5	i	6	6	19	7	-1
COc1cccc(C2=NN(C(=O)c3cccs3)C(O)(C(F)(F)F)C2)c1 (stereo unspecified)	1	0	i	-6	x	12	16	7
O=c1c2ccccc2c(C=Nc2ccccc2O)c(O)n1-c1nccs1	-29	-4	i	116	x	-54	4	88*	eIF4H FP inh retest=33;PABP FP inh retest=89*
Cc1ccc(/C=C/C(=O)NCCCn2ccnc2)cc1	-1	-1	i	6	x	6	3	0
Cc1ccccc1N=C(NOCc1ccccc1)c1nonc1N	-1	-1	x	-7	-4	x	73	4
CCOC(=O)[C@@H](NC(=O)CC[C@H]1O[C@@H](n2cc(C)c(=O)[nH]c2=O)C[C@@H]1O)C(C)C	-1	1	x	x	-26	-4	x	x
COc1cc(C(O)c2nc(-c3cccc(C(F)(F)F)c3)cs2)ccc1F (stereo unspecified)	1	-4	x	x	-14	2	x	x
O=C(N1CCCCC1)C1(c2ccccc2)CCCCC1	-3	-1	i	-1	-15	13	-6	-9

Four entries picked at random from those above, as already listed:
SMILES	MT1-MMP act inh	MT1-MMP act inh RFP	Rce1 inh	eIF4H FP inh	Yeast UUG start	Env fusion inh	CSC inhib	PABP FP inh	others
Cc1ccccc1N=C(NOCc1ccccc1)c1nonc1N	-1	-1	x	-7	-4	x	73	4
CCOC(=O)N1CCN(C(=O)c2ccc3c(=O)n(-c4ccc(OC)cc4)c(=S)[nH]c3c2)CC1	17	-2	i	0	-7	-26	-4	-4
O=C(CCCN1C(=O)CSc2ncccc21)N1CCN(c2cccc(C(F)(F)F)c2)CC1	-2	-9	i	-3	-13	x	-11	17
CCOC(=O)N1CCC(NC(=O)CCS(=O)(=O)c2ccc3c(c2)CCN3C(=O)CC)CC1	2	0	i	-2	-11	-4	-6	-6

Continued:
SMILES	MT1-MMP act inh	MT1-MMP act inh RFP	Rce1 inh	eIF4H FP inh	Yeast UUG start	Env fusion inh	CSC inhib	PABP FP inh	others
O=[N+]([O-])c1cc2c(cc1C=Nc1ccccc1)OCO2	6	7	i	33	-8	x	-6	10
Oc1nc(-c2ccc(Cl)cc2)n2ccncc12	1	6	i	-1	x	-4	4	8
O=C(CN1CCN(S(=O)(=O)c2ccc(Br)cc2)CC1)Nc1ccccc1F	5	-2	i	-3	5	x	3	-8
CCn1cc(C(=O)OCc2ccccc2)c(=O)c2ccc(C)nc21	-5	0	i	-7	8	x	-2	5
CCCCn1c(CCNC(=O)c2ccco2)nc2ccccc21	0	0	i	-7	-11	18	8	6
CC1(c2ccccc2Br)NC(=O)N(CC(=O)Nc2ccc(S(N)(=O)=O)cc2)C1=O (stereo unspecified)	3	-2	i	-19	0	-3	-10	0
COc1ccc(CNC(=O)c2ccc(S(=O)(=O)NCc3ccco3)cc2)cc1	5	-3	x	x	-19	0	x	x
Nc1c(-c2cccc(Cl)c2)cnn1-c1cccc(C(F)(F)F)c1	0	-10	i	-8	-8	-11	x	-8
CC(=O)Nc1ccc(S(=O)(=O)N2CCSCC2)cc1	9	0	i	2	-3	-63	-17	1
Cc1ccc(NC(=O)NCCCN2CCCC2=O)cc1	-2	0	i	8	-3	-16	3	-12
COC(=O)[C@]1(C)CCC[C@@]2(C)C3CC[C@@]4(C)C[C@]3(CCC21)CC(=O)N4Cc1ccc(OC)cc1 (stereo partly specified)	-3	-15	x	x	-18	-6	29	x
CC12CCC(=O)C=C1CCC1C2C(O)CC2(C)C1CCC21OCC1=O (stereo unspecified)	3	2	x	x	4	-5	x	x
CCc1nc2c(OCc3cccc(OC)c3)cccn2c1N(C)C(=O)c1ccc(OC)cc1	3	1	x	x	-4	-4	x	x
Cn1c(=O)c(C(=O)NNC(=O)c2cccc(Cl)c2)c(O)c2ccccc21	5	5	i	21	-9	3	31	10
CC(C)=CC(=O)N1CCCC(N2CCN(c3ccccc3C)CC2)C1 (stereo unspecified)	0	2	i	2	-7	-64	-4	4
CCOc1ccc(N2CC(C(=O)Nc3cccc(C)c3C)CC2=O)cc1 (stereo unspecified)	0	1	i	2	-21	-11	-14	-7

Screening data deposited in PubChem by several laboratories.
